# Screens (PubChem BioAssay)
# Vaccinia stage: blocks a specific stage of Vaccinia orthopoxvirus infection; Vaccinia-infected cells, mCherry/Venus stage reporter fluorescence; hits give low values; some inactives read as strong as hits; activity change (mCherry), % (concentration not given with the values); 0.01% of 89,000 active;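 active means mCherry past -33% and 40 or more points under the early reporter, replicates agreeing; inconclusive means past -33% without that gap or agreement; tested in A549 cells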;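 further: scaled between vehicle wells and reference inhibitor wells; 23 nL library stock went into each well; one replicate is shown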
# Vaccinia stage Venus: second read-out of Vaccinia stage, no call of its own (marks repeat the call); activity change (Venus), %; measured here: Venus reporter, other viral stage;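 negative = less Venus signal; first of two replicates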
# An asterisk follows results filed as active; ? = inconclusive; . = not tested or not shown; & = joins results of further samples.
molecule | Vaccinia stage Venus | Vaccinia stage
C[C@@H]1CN([C@@H](C)CO)C(=O)c2cc(NS(=O)(=O)c3cccs3)ccc2O[C@@H](C)CCCCO[C@@H]1CN(C)C(=O)Nc1ccc2c(c1)OCO2 | . | ?
CCCNC(=O)N1C[C@@H]2[C@H](c3ccccc31)[C@@H](CO)N2Cc1cc(F)ccc1F | 11 | 11
COCC#Cc1cnc2c(c1)C(=O)N([C@H](C)CO)C[C@H](C)[C@H](CN(C)C(=O)C1CCCCC1)O2 | 7 | 4
O=C(C[C@H]1C=C[C@H](NS(=O)(=O)c2ccc(F)cc2)[C@H](CO)O1)NCc1ccc(Cl)c(Cl)c1 | -28 | -29
COc1ccc(NC(=O)Nc2ccc3c(c2)C(=O)N([C@H](C)CO)C[C@H](C)[C@H](CN(C)C(=O)NC(C)C)O3)cc1 | 8 | 3
CN(C)CC(=O)N[C@H]1CC[C@H](CCNS(=O)(=O)c2ccccc2)O[C@@H]1CO | 5 | -1
Cc1cccc(-c2ccc([C@H]3[C@@H](CO)N4CCCCN(S(=O)(=O)c5cn(C)cn5)C[C@H]34)cc2)c1 | -28 | -27
CCCC(=O)N1CC2(C1)CN(S(=O)(=O)c1ccc(C)cc1)[C@H](CO)c1[nH]c3cc(OC)ccc3c12 | -7 | -9
CC(C)NC(=O)Nc1ccc2c(c1)C(=O)N([C@@H](C)CO)C[C@@H](C)[C@H](CN(C)C(=O)Nc1ccc(F)cc1)O2 | 2 | 3
C[C@H](CO)N1C[C@H](C)[C@H](CN(C)S(C)(=O)=O)Oc2c(NC(=O)c3ccncc3)cccc2C1=O | 4 | 12
CN1CCN(C(=O)C[C@@H]2C[C@H]3c4cc(NC(=O)CC5CC5)ccc4O[C@H]3[C@@H](CO)O2)CC1 | 3 | 8
CC(C)NC(=O)Nc1ccc2c(c1)C(=O)N([C@@H](C)CO)C[C@H](C)[C@H](CN(C)Cc1ccncc1)O2 | 16 | 18
COc1ccc(-c2ccc3c(c2)[C@@H]2[C@@H](CCN2C(=O)NC(C)C)[C@H](CO)N3C)cc1 | . | ?
C/C=C/c1ccc2c(c1)O[C@@H](CN(C)Cc1ccccc1)[C@@H](C)CN([C@H](C)CO)S2(=O)=O | -13 | -21
C[C@@H]1CN([C@H](C)CO)C(=O)Cc2cc(NC(=O)CCCCCC(=O)Nc3ccccc3N)ccc2O[C@@H]1CN(C)S(C)(=O)=O | 12 | 13
C[C@H](CO)N1C[C@H](C)[C@@H](CN(C)Cc2ccc3c(c2)OCO3)Oc2ccc(NC(=O)Nc3ccc(C(F)(F)F)cc3)cc2C1=O | -22 | -32
CC(C)NC(=O)N1CCCCN2[C@H](CO)[C@H](c3ccc(C#Cc4ccccc4)cc3)[C@@H]2C1 | . | ?
O=C(N[C@@H]1CC[C@@H](CCNS(=O)(=O)c2ccc(Cl)cc2)O[C@@H]1CO)c1cccc(F)c1 | 12 | -5
C[C@H]1CN([C@@H](C)CO)C(=O)Cc2cc(NC(=O)CCN3CCOCC3)ccc2O[C@@H]1CN(C)C(=O)NC1CCCCC1 | 4 | -2
COc1ccccc1-c1ccc2c(c1)O[C@H](CN(C)C(=O)c1cccnc1)[C@H](C)CN([C@@H](C)CO)S2(=O)=O | -6 | 12
C[C@H](CO)N1C[C@H](C)[C@H](CN(C)S(C)(=O)=O)Oc2cc(C#CC3CCCC3)ccc2S1(=O)=O | -41 | -34
COc1ccccc1S(=O)(=O)N[C@H]1CC[C@@H](CC(=O)N2CCN(C)CC2)O[C@@H]1CO | 2 | -2
C[C@@H]1CN([C@@H](C)CO)C(=O)Cc2cc(NS(=O)(=O)c3ccc(F)cc3)ccc2O[C@@H]1CN(C)C(=O)Nc1cccc2ccccc12 | 12 | 25
CC(=O)Nc1ccc2c(c1)C(=O)N(C)[C@H]1CC[C@H](CC(=O)Nc3ccc(Cl)cc3)O[C@@H]1CO2 | 2 | 6
C[C@@H]1CN([C@@H](C)CO)C(=O)c2cc(C3=CCCCC3)cnc2O[C@@H]1CN(C)C(=O)c1ccc(F)cc1 | -6 | -15
CO[C@@H]1CC[C@H]2CCN(C)C(=O)[C@H](C)[C@H](OC)CN(C)C(=O)c3cccc(C#N)c3OC[C@H]1O2 | 7 | 13
COc1ccc(CN2[C@H](CO)[C@H]3c4ccccc4N(C(=O)CC(F)(F)F)C[C@H]32)cc1 | . | ?
COc1ccc2c3c([nH]c2c1)[C@H](CO)N(C(C)=O)CC31CCN(C(=O)Nc2c(C)noc2C)CC1 | 4 | 12
C[C@H](CO)N1C[C@H](C)[C@H](CN(C)S(=O)(=O)c2ccccc2)Oc2ccc(NC(=O)Cc3ccccc3)cc2C1=O | 7 | 2
COc1cccc(-c2ccc([C@@H]3[C@@H](C#N)N(C(=O)Cc4ccccc4)[C@H]3CO)cc2)c1 | . | ?
C[C@@H]1CCCCO[C@@H](CN(C)C(=O)CCC(F)(F)F)[C@H](C)CN([C@H](C)CO)C(=O)c2cc(NC(=O)c3ccccc3)ccc2O1 | -27 | -33
COCc1cn(CC[C@H]2CC[C@@H](NC(=O)CCN3CCCCC3)[C@H](CO)O2)nn1 | 19 | 13
COC(=O)C[C@@H]1CC[C@H](NC(=O)Nc2ccc(C(F)(F)F)cc2)[C@@H](CO)O1 | 5 | 6
CN(C)C(=O)c1cccc(-c2ccc([C@@H]3[C@@H](CO)N4CCCCN(S(C)(=O)=O)C[C@H]34)cc2)c1 | 2 | 12
C[C@@H]1CCCCO[C@H](CN(C)CC2CC2)[C@@H](C)CN([C@@H](C)CO)C(=O)c2cc(NS(=O)(=O)c3ccc(F)cc3)ccc2O1 | 6 | 7
C[C@H](CO)N1C[C@H](C)[C@@H](CN(C)C(=O)Nc2ccc3c(c2)OCO3)Oc2ncc(C#CC3(O)CCCC3)cc2C1=O | -8 | -9
CC(C)C#Cc1ccc([C@H]2[C@H]3CN(C(=O)c4ccc5c(c4)OCO5)CCCCN3[C@H]2CO)cc1 | . | ?
CC(C)N(C[C@@H]1N[C@H](CO)[C@@H]1c1ccc(C2=CCCC2)cc1)C(=O)C1CC1 | -10 | -15
CO[C@H]1CN(C)C(=O)c2ccc(NC(C)=O)cc2OC[C@H](C)N(C(=O)c2ccccn2)C[C@@H]1C | 4 | 10
C[C@H]1CN([C@@H](C)CO)C(=O)CCCn2nncc2CO[C@@H]1CN(C)C(=O)Nc1ccccc1C(F)(F)F | 10 | 7
COc1ccc(S(=O)(=O)Nc2ccc3c(c2)C(=O)N([C@@H](C)CO)C[C@H](C)[C@@H](CN(C)C(=O)c2ccncc2)OCCCC[C@H](C)O3)cc1 | 21 | 31
C[C@H](CO)N1C[C@H](C)[C@@H](CN(C)S(=O)(=O)c2ccc(F)cc2)Oc2ccc(NC(=O)C3CC3)cc2C1=O | 3 | -4
CCOC(=O)N(C)C[C@@H]1OCc2cn(nn2)CCCC(=O)N([C@H](C)CO)C[C@@H]1C | 3 | 4
C[C@H](O)C#Cc1ccc([C@@H]2[C@@H](CO)N3CCCCN(CC4CC4)C[C@H]23)cc1 | 1 | 11
CCCC#Cc1ccc2c(c1)O[C@@H](CN(C)C(=O)COC)[C@H](C)CN([C@H](C)CO)S2(=O)=O | -13 | 11
C[C@@H]1CN([C@@H](C)CO)C(=O)c2cc(-c3cncnc3)cnc2O[C@H]1CN(C)Cc1ccc(Oc2ccccc2)cc1 | -15 | -22
COCc1cn(CC[C@@H]2CC[C@H](NC(=O)Nc3c(C)noc3C)[C@H](CO)O2)nn1 | 13 | 4
CCC(=O)Nc1ccc2c(c1)OC[C@@H](C)N(C(=O)c1ccncc1)C[C@@H](C)[C@H](OC)CN(C)C2=O | 3 | 10
CO[C@H]1CN(C)C(=O)c2cccc(C#N)c2OC[C@H]2O[C@H](CC[C@H]2OC)CCN(C)C(=O)[C@@H]1C | -7 | -3
CNC[C@H]1Oc2ccc(NC(=O)Cc3cn(C)c4ccccc34)cc2CC(=O)N([C@H](C)CO)C[C@@H]1C | -1 | 4

# Remaining list, next part:
molecule | Vaccinia stage Venus | Vaccinia stage
C[C@@H]1CN([C@@H](C)CO)S(=O)(=O)c2ccc(C#Cc3ccccc3F)cc2O[C@H]1CN(C)C(=O)Cc1ccncc1 | -20 | -23
CCCNC(=O)N1CC2(C1)[C@H](c1ccccc1)[C@H](CO)N2C(=O)C1CCC1 | 13 | 13
Cc1ccc(S(=O)(=O)N(C)C[C@H]2Oc3ccc(NC(=O)CCN4CCOCC4)cc3CC(=O)N([C@H](C)CO)C[C@H]2C)cc1 | 2 | 9
N#C[C@H]1[C@H](c2ccc(C#Cc3ccc(F)cc3)cc2)[C@@H](CO)N1C(=O)C1CCC1 | -8 | -8
Cc1cc(C(=O)Nc2cccc3c2O[C@H](CN(C)Cc2ccc(C(=O)O)cc2)[C@@H](C)CN([C@H](C)CO)C3=O)n(C)n1 | -5 | 9
C[C@@H]1CCCCO[C@H](CN(C)CC2CCCCC2)[C@@H](C)CN([C@H](C)CO)C(=O)c2cc(NC(=O)Cc3ccccc3)ccc2O1 | -3 | -12
CNC[C@@H]1Oc2ccc(NC(=O)Cc3cn(C)c4ccccc34)cc2CC(=O)N([C@H](C)CO)C[C@H]1C | 0 | 6
Cc1ccc(-c2ccc3c(c2)O[C@H](CN(C)Cc2ccncc2)[C@H](C)CN([C@H](C)CO)S3(=O)=O)cc1 | . | ?
CO[C@@H]1CN(C)C(=O)c2cc(NC(=O)C3CC3)ccc2OC[C@@H](C)N(Cc2cccc(F)c2)C[C@@H]1C | -16 | -23
Cc1ccc(S(=O)(=O)N[C@H]2C=C[C@H](CC(=O)NCCc3ccncc3)O[C@@H]2CO)cc1 | 2 | -2

# An excerpt of the results above, as a working copy:
molecule | Vaccinia stage Venus | Vaccinia stage
C[C@@H]1CN([C@@H](C)CO)C(=O)c2cc(NS(=O)(=O)c3cccs3)ccc2O[C@@H](C)CCCCO[C@@H]1CN(C)C(=O)Nc1ccc2c(c1)OCO2 | . | ?
CCCNC(=O)N1C[C@@H]2[C@H](c3ccccc31)[C@@H](CO)N2Cc1cc(F)ccc1F | 11 | 11
COCC#Cc1cnc2c(c1)C(=O)N([C@H](C)CO)C[C@H](C)[C@H](CN(C)C(=O)C1CCCCC1)O2 | 7 | 4
O=C(C[C@H]1C=C[C@H](NS(=O)(=O)c2ccc(F)cc2)[C@H](CO)O1)NCc1ccc(Cl)c(Cl)c1 | -28 | -29
COc1ccc(NC(=O)Nc2ccc3c(c2)C(=O)N([C@H](C)CO)C[C@H](C)[C@H](CN(C)C(=O)NC(C)C)O3)cc1 | 8 | 3
CN(C)CC(=O)N[C@H]1CC[C@H](CCNS(=O)(=O)c2ccccc2)O[C@@H]1CO | 5 | -1
Cc1cccc(-c2ccc([C@H]3[C@@H](CO)N4CCCCN(S(=O)(=O)c5cn(C)cn5)C[C@H]34)cc2)c1 | -28 | -27
CCCC(=O)N1CC2(C1)CN(S(=O)(=O)c1ccc(C)cc1)[C@H](CO)c1[nH]c3cc(OC)ccc3c12 | -7 | -9
CC(C)NC(=O)Nc1ccc2c(c1)C(=O)N([C@@H](C)CO)C[C@@H](C)[C@H](CN(C)C(=O)Nc1ccc(F)cc1)O2 | 2 | 3
C[C@H](CO)N1C[C@H](C)[C@H](CN(C)S(C)(=O)=O)Oc2c(NC(=O)c3ccncc3)cccc2C1=O | 4 | 12

# Next part.
molecule | Vaccinia stage Venus | Vaccinia stage
C[C@H](CO)N1C[C@H](C)[C@@H](CN(C)C)Oc2cc(C#Cc3ccccc3F)ccc2S1(=O)=O | -25 | -28
CCCC(=O)Nc1ccc2c(c1)C(=O)N(C)C[C@H](OC)[C@@H](C)CN(C(=O)c1ccncc1)[C@@H](C)CO2 | 13 | 21
COc1ccc(S(=O)(=O)Nc2cccc3c2O[C@H](CN(C)Cc2ccncc2)[C@@H](C)CN([C@H](C)CO)C3=O)cc1 | 20 | 26
C[C@H]1CN([C@@H](C)CO)S(=O)(=O)c2ccc(C#CCN(C)C)cc2O[C@@H]1CN(C)C(=O)Nc1ccccc1F | -7 | -16
COc1ccc(NC(=O)N[C@@H]2CC[C@@H](CCn3cc(-c4ccccc4)nn3)O[C@@H]2CO)cc1 | -2 | -1
CCCNC(=O)C[C@H]1CC[C@H]2[C@H](COc3ccc(NC(=O)Nc4ccccc4F)cc3C(=O)N2C)O1 | -3 | 4
C[C@H](CO)N1C[C@H](C)[C@@H](CN(C)S(C)(=O)=O)OCc2cnnn2CCCC1=O | 2&9 | 11&7
C[C@@H]1CN([C@H](C)CO)S(=O)(=O)c2ccc(C3=CCCC3)cc2O[C@H]1CN(C)CC1CCCC1 | -5 | -6
Cc1noc(C)c1S(=O)(=O)Nc1ccc2c(c1)C(=O)N([C@H](C)CO)C[C@@H](C)[C@H](CN(C)Cc1ccc(-c3ccccc3)cc1)O2 | -18 | -18
COc1ccc(C[C@@H]2CCc3cnnn3COC[C@@H](Cc3ccccc3)NC2=O)cc1 | -17 | -9
CC(C)(O)C#Cc1ccc([C@H]2[C@H](CO)N3CCCCN(C(=O)c4cccnc4)C[C@@H]23)cc1 | 7 | 13
CN(C)C(=O)c1cccc(-c2ccc([C@H]3[C@@H](C#N)N(C(=O)C4CCC4)[C@H]3CO)cc2)c1 | -20 | -23
Cc1noc(C)c1NC(=O)Nc1cccc2c1O[C@@H](CN(C)C(=O)NC1CCCCC1)[C@@H](C)CN([C@@H](C)CO)C2=O | 4 | 1
Cc1noc(C)c1NC(=O)Nc1ccc2c(c1)CC(=O)N([C@H](C)CO)C[C@H](C)[C@H](CN(C)Cc1ccc(-c3ccccc3)cc1)O2 | 0 | -2
CN(C)C(=O)C[C@@H]1C=C[C@@H](NC(=O)C2CC2)[C@H](CO)O1 | 0 | -2
O=C(C[C@H]1CC[C@@H](NC(=O)c2cccnc2)[C@@H](CO)O1)NCc1ccc(Cl)c(Cl)c1 | 25 | 12
COC(=O)[C@@H]1[C@@H](CO)[C@@H]2Cn3c(ccc(-c4cccc(F)c4)c3=O)[C@H]1N2Cc1cccnc1 | 1 | -3
COc1ccc(C#Cc2ccc([C@H]3[C@@H](CO)N4C(=O)CN(C(=O)c5cccnc5)C[C@H]34)cc2)cc1 | -22 | -28

# These rows are one share of the data, so the mix of outcomes need not match the whole.
